# A1 apoptosis 2: blocks A1, raising caspase activity; MEF A1-2A-BIM cells, caspase-Glo luminescence, 3 h; percent of clofoctol response, DMSO zero; caspase activation, % (no concentration beside the values); AID 2465; 24,000 tested, under 10 active; in the data active means caspase activation above about 5.9%;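 further: wells of about 30 µL received 50 nL stock; the first replicate is given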
#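 Evaluation: Caspase-3/7 activity from luminescence increase | Assay system: A1-2A-BIM mouse embryonic fibroblasts | Quantity: 2500 MEF cells/well | Medium: RPMI-1640 plus 10% FBS | Detection: Caspase-Glo 3/7 luminescence, 1 h at room temperature | Dosing: 50 nL compound per well, pinned | Timing: Cells settled overnight, compound exposure 3 h at 37 °C, 5% CO2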
# * = called active by the depositor.
SMILES,A1 apoptosis 2
C[C@H](CO)N1C[C@H](C)[C@H](CN(C)C(=O)Nc2ccc(F)cc2)Oc2c(NC(=O)CCCCCC(=O)Nc3ccccc3N)cccc2C1=O,1.3
O=C(CCCCCCC(=O)N/N=C/c1cc(F)ccc1O)NO,0.3
C[C@H]1CCCCO[C@H](CN(C)C)[C@@H](C)CN([C@@H](C)CO)C(=O)c2cc(N(C)C)ccc2O1,0.5
COc1ccc(NC(=O)N(C)C[C@H]2Oc3ccc(NC(=O)Nc4cccc5ccccc45)cc3CC(=O)N([C@@H](C)CO)C[C@@H]2C)cc1,-0.1
CC(C)NC(=O)N(C)C[C@@H]1Oc2ccc(NS(=O)(=O)c3ccccc3)cc2CC(=O)N([C@H](C)CO)C[C@@H]1C,-0.2
Cc1noc(C)c1S(=O)(=O)Nc1ccc2c(c1)C(=O)N([C@H](C)CO)C[C@@H](C)[C@H](CN(C)C(=O)NC1CCCCC1)OCCCC[C@@H](C)O2,0.8
CC(C)NC(=O)Nc1ccc2c(c1)C(=O)N([C@H](C)CO)C[C@@H](C)[C@H](CN(C)Cc1ccccc1)OCCCC[C@@H](C)O2,0.6
C[C@H](CO)N1C[C@H](C)[C@H](CN(C)Cc2ccc(C(=O)O)cc2)OCCCC[C@H](C)Oc2ccc(NS(C)(=O)=O)cc2C1=O,-0.1
Cc1noc(C)c1S(=O)(=O)N(C)C[C@H]1Oc2ccc(NS(=O)(=O)c3cn(C)cn3)cc2C(=O)N([C@H](C)CO)C[C@H]1C,-0.7
Cc1ccc(S(=O)(=O)Nc2ccc3c(c2)C(=O)N([C@@H](C)CO)C[C@@H](C)[C@H](CN(C)C(=O)Nc2cccc4ccccc24)OCCCC[C@@H](C)O3)cc1,1.2
C[C@@H]1CN([C@@H](C)CO)C(=O)c2cc(NC(=O)CCC(F)(F)F)ccc2O[C@@H](C)CCCCO[C@H]1CN(C)C(=O)Nc1cccc2ccccc12,0.3
C[C@H]1CN([C@@H](C)CO)C(=O)CCCn2cc(nn2)CO[C@@H]1CN(C)C(=O)Nc1cccc(Oc2ccccn2)c1,0.2
Cc1noc(C)c1NC(=O)N(C)C[C@@H]1Oc2ccc(NC(=O)C3CC3)cc2CC(=O)N([C@@H](C)CO)C[C@H]1C,1.4
C[C@H]1CN([C@@H](C)CO)C(=O)c2cc(NC(=O)C3CCCCC3)ccc2O[C@@H]1CN(C)Cc1ccc(Cl)c(Cl)c1,1.2
C[C@H](CO)N1C[C@H](C)[C@H](CN(C)Cc2ccc(-c3ccccc3)cc2)Oc2ccc(N(C)C)cc2CC1=O,0.7
C[C@H](CO)N1C[C@H](C)[C@H](CN(C)Cc2ccc(Oc3ccccc3)cc2)Oc2ccc(NC(=O)CCN3CCOCC3)cc2CC1=O,0.7
Cc1noc(C)c1S(=O)(=O)Nc1ccc2c(c1)C(=O)N([C@H](C)CO)C[C@H](C)[C@H](CN(C)C(=O)NC(C)C)OCCCC[C@H](C)O2,0.8
C[C@@H]1CN([C@@H](C)CO)C(=O)Cc2cc(NC(=O)Cc3ccccc3)ccc2O[C@@H]1CN(C)Cc1ccc(-c2ccccc2)cc1,0.9
C[C@@H]1CN([C@H](C)CO)C(=O)c2cc(NC(=O)C3CCCCC3)ccc2O[C@@H](C)CCCCO[C@H]1CN(C)S(C)(=O)=O,-1.0
C[C@@H]1CN([C@@H](C)CO)C(=O)Cc2cc(NC(=O)Cc3cn(C)c4ccccc34)ccc2O[C@@H]1CN(C)CC1CC1,0.6
C[C@@H]1CCCCO[C@H](CN(C)C(=O)Nc2ccc(C(F)(F)F)cc2)[C@@H](C)CN([C@@H](C)CO)C(=O)c2cc(NS(=O)(=O)c3cn(C)cn3)ccc2O1,-1.1
COc1ccc(S(=O)(=O)Nc2ccc3c(c2)C(=O)N([C@H](C)CO)C[C@@H](C)[C@@H](CN(C)S(=O)(=O)c2ccccc2)OCCCC[C@@H](C)O3)cc1,-0.4
C[C@H]1CN([C@@H](C)CO)C(=O)c2cccc(NC(=O)Nc3ccc(C(F)(F)F)cc3)c2O[C@@H]1CN(C)CC1CCCCC1,-0.2
COc1ccc(Br)cc1/C=N/NC(=O)CCCCCC(=O)Nc1ccccc1O,-0.2
C[C@@H]1CCCCO[C@H](CN(C)S(=O)(=O)c2cccs2)[C@@H](C)CN([C@H](C)CO)C(=O)c2cc(NC(=O)CCCCCC(=O)Nc3ccccc3N)ccc2O1,1.2

# Reprinted from the part before: 2 entries, followed by the next part.
SMILES,A1 apoptosis 2
COc1ccc(Br)cc1/C=N/NC(=O)CCCCCC(=O)Nc1ccccc1O,-0.2
C[C@@H]1CCCCO[C@H](CN(C)S(=O)(=O)c2cccs2)[C@@H](C)CN([C@H](C)CO)C(=O)c2cc(NC(=O)CCCCCC(=O)Nc3ccccc3N)ccc2O1,1.2
C[C@@H]1CN([C@@H](C)CO)C(=O)c2cc(N(C)C)ccc2O[C@H]1CN(C)Cc1ccc(Cl)c(Cl)c1,-0.1
C[C@H]1CCCCO[C@@H](CN(C)Cc2ccccc2)[C@@H](C)CN([C@@H](C)CO)C(=O)c2cc(NS(=O)(=O)c3cn(C)cn3)ccc2O1,0.1
C[C@@H]1CN([C@H](C)CO)C(=O)c2cc(NS(=O)(=O)c3cn(C)cn3)ccc2O[C@@H]1CN(C)S(=O)(=O)c1ccc(Cl)cc1,0.5
Cc1noc(C)c1S(=O)(=O)Nc1ccc2c(c1)C(=O)N([C@H](C)CO)C[C@@H](C)[C@@H](CN(C)S(=O)(=O)c1ccccc1)OCCCC[C@@H](C)O2,0.8
C[C@H](CO)N1C[C@H](C)[C@@H](CN(C)C(=O)Nc2ccc3c(c2)OCO3)Oc2c(cccc2N(C)C)C1=O,-1.2
C[C@H]1CCCCO[C@@H](CN(C)S(=O)(=O)c2ccc(F)cc2)[C@@H](C)CN([C@@H](C)CO)C(=O)c2cc(NC(=O)CCC(F)(F)F)ccc2O1,-0.8
COc1cc(/C=C(\C#N)C(=O)Nc2nnc(C(F)(F)F)s2)ccc1OCc1ccc(C(F)(F)F)cc1C(F)(F)F,0.1
COc1ccc(NC(=O)N(C)C[C@H]2OCc3cnnn3CCCC(=O)N([C@@H](C)CO)C[C@H]2C)cc1,0.2
CC(C)C[C@@H]1NC(=O)[C@H]2C[C@@H](C(=O)NCCCCCNC(=O)CS)[C@@H](c3cccc(OCCO)c3)N2C1=O,0.1
C[C@H](CO)N1C[C@H](C)[C@H](CN(C)Cc2ccc(Cl)c(Cl)c2)Oc2ccc(NC(=O)NC3CCCCC3)cc2CC1=O,3.2
COc1ccc(CN(C)C[C@@H]2Oc3c(NC(=O)c4cnccn4)cccc3C(=O)N([C@@H](C)CO)C[C@H]2C)cc1,-0.3
COc1ccc(S(=O)(=O)Nc2cccc3c2O[C@H](CN(C)S(=O)(=O)c2cn(C)cn2)[C@@H](C)CN([C@@H](C)CO)C3=O)cc1,-0.2
Cc1noc(C)c1NC(=O)Nc1cccc2c1O[C@@H](CN(C)Cc1ccc(-c3ccccc3)cc1)[C@@H](C)CN([C@@H](C)CO)C2=O,0.5
C[C@H](CO)N1C[C@H](C)[C@@H](CN(C)C(=O)Nc2cccc3ccccc23)Oc2ccc(NC(=O)Nc3ccc(F)cc3)cc2CC1=O,-0.1
C[C@@H]1CN([C@H](C)CO)C(=O)c2cc(NC(=O)NC3CCCCC3)ccc2O[C@@H]1CN(C)Cc1ccc(Cl)c(Cl)c1,-1.2
COc1ccc(S(=O)(=O)Nc2ccc3c(c2)CC(=O)N([C@@H](C)CO)C[C@H](C)[C@H](CN(C)C(=O)Nc2c(C)noc2C)O3)cc1,1.1
C[C@@H]1CN([C@H](C)CO)C(=O)CCCn2nncc2CO[C@H]1CN(C)Cc1ccc(Oc2ccccc2)cc1,0.4
O=C(CCCCCC(=O)N/N=C/c1ccccc1O)NO,0.4
C[C@H](CO)N1C[C@H](C)[C@@H](CN(C)C(=O)Nc2ccc(N3CCN(C)CC3)cc2)OCc2cnnn2CCCC1=O,-0.3
C[C@H](CO)N1C[C@H](C)[C@H](CN(C)Cc2ccc(-c3ccccc3)cc2)Oc2ccc(NS(C)(=O)=O)cc2CC1=O,-0.6
C[C@H]1CN([C@@H](C)CO)C(=O)c2cccc(NC(=O)CCCCCC(=O)Nc3ccccc3N)c2O[C@@H]1CN(C)C(=O)Nc1ccc(F)cc1,1.3
CNC[C@@H]1Oc2ccc(NC(=O)C3CC3)cc2C(=O)N([C@H](C)CO)C[C@H]1C,-0.1
O=C(N/N=C/C1=CCCCC1)c1ccccc1O,-1.6
C[C@H]1CN([C@@H](C)CO)C(=O)c2cccc(NC(=O)Nc3ccc(F)cc3)c2O[C@H]1CN(C)S(=O)(=O)c1cccs1,-0.6
C[C@H](CO)N1C[C@H](C)[C@H](CN(C)Cc2ccc(C(F)(F)F)cc2)Oc2ccc(NC(=O)Nc3ccccc3)cc2C1=O,-0.5

# An excerpt of these results, with bars between the fields:
compound | A1 apoptosis 2
C[C@H]1CN([C@@H](C)CO)C(=O)CCCn2cc(nn2)CO[C@@H]1CN(C)C(=O)Nc1cccc(Oc2ccccn2)c1 | 0.2
Cc1noc(C)c1NC(=O)N(C)C[C@@H]1Oc2ccc(NC(=O)C3CC3)cc2CC(=O)N([C@@H](C)CO)C[C@H]1C | 1.4
C[C@H]1CN([C@@H](C)CO)C(=O)c2cc(NC(=O)C3CCCCC3)ccc2O[C@@H]1CN(C)Cc1ccc(Cl)c(Cl)c1 | 1.2
C[C@H](CO)N1C[C@H](C)[C@H](CN(C)Cc2ccc(-c3ccccc3)cc2)Oc2ccc(N(C)C)cc2CC1=O | 0.7
C[C@H](CO)N1C[C@H](C)[C@H](CN(C)Cc2ccc(Oc3ccccc3)cc2)Oc2ccc(NC(=O)CCN3CCOCC3)cc2CC1=O | 0.7

# Following part
SMILES,A1 apoptosis 2
C[C@H](CO)N1C[C@H](C)[C@H](CN(C)Cc2ccc(Cl)c(Cl)c2)Oc2ccc(NC(=O)Cc3ccccc3)cc2C1=O,-1.1
C[C@@H]1CCCCO[C@@H](CN(C)Cc2ccc(Cl)c(Cl)c2)[C@@H](C)CN([C@H](C)CO)C(=O)c2cc(NS(=O)(=O)c3ccc(F)cc3)ccc2O1,0.4
CCCN(C)C[C@@H]1OCCCC[C@H](C)Oc2ccc(NC(=O)NC3CCCCC3)cc2C(=O)N([C@@H](C)CO)C[C@@H]1C,0.8
C[C@H]1CCCCO[C@H](CN(C)CC2CCCCC2)[C@@H](C)CN([C@@H](C)CO)C(=O)c2cc(NC(=O)Nc3ccc(F)cc3)ccc2O1,1.1
C[C@@H]1CN([C@@H](C)CO)C(=O)c2cccc(NC(=O)c3nc4ccccc4s3)c2O[C@H]1CN(C)C(=O)Nc1ccc(F)cc1,1.4
Cc1noc(C)c1S(=O)(=O)N(C)C[C@H]1Oc2ccc(NC(=O)CCN3CCOCC3)cc2CC(=O)N([C@H](C)CO)C[C@@H]1C,0.4
C[C@H](CO)N1C[C@H](C)[C@H](CN(C)S(=O)(=O)c2ccc(F)cc2)Oc2c(NC(=O)C3CC3)cccc2C1=O,-1.2
Cc1ccc(S(=O)(=O)Nc2cccc3c2O[C@H](CN(C)Cc2ccc(-c4ccccc4)cc2)[C@@H](C)CN([C@@H](C)CO)C3=O)cc1,-0.8
C[C@@H]1CN([C@H](C)CO)C(=O)c2cc(NC(=O)Nc3ccc4c(c3)OCO4)ccc2O[C@H]1CN(C)C(=O)Nc1ccccc1,0.1
CNC[C@@H]1Oc2ccc(NC(=O)Nc3ccc(OC)cc3)cc2C(=O)N([C@H](C)CO)C[C@@H]1C,2.1
C[C@@H]1CN([C@@H](C)CO)C(=O)CCCn2cc(nn2)CO[C@H]1CN(C)C(=O)CCC(F)(F)F,0.3
C[C@H]1CCCCO[C@H](CN(C)C(=O)Cc2ccccc2)[C@@H](C)CN([C@@H](C)CO)C(=O)c2cc(NC(=O)c3ccncc3)ccc2O1,-0.3
C[C@@H]1CN([C@@H](C)CO)C(=O)c2cc(NC(=O)CCN3CCOCC3)ccc2O[C@H]1CN(C)Cc1ccc(C(F)(F)F)cc1,-0.4
C[C@H]1CN([C@@H](C)CO)C(=O)c2cc(NC(=O)Nc3cccc4ccccc34)ccc2O[C@H]1CN(C)C(=O)Nc1ccc(C(F)(F)F)cc1,0.6
Cc1ccc(/C=N/NC(=O)c2ccc(C(=O)NO)cc2)o1,1.8
C[C@@H]1CN([C@H](C)CO)C(=O)c2cccc(NS(=O)(=O)c3ccc(F)cc3)c2O[C@@H]1CN(C)Cc1ccc(-c2ccccc2)cc1,-0.5
Cc1ccc(/C=N/NC(=O)c2cccc(C(=O)NO)c2)o1,-0.6
C[C@@H]1CCCCO[C@@H](CN(C)C)[C@H](C)CN([C@@H](C)CO)C(=O)c2cc(NC(=O)Nc3ccc(F)cc3)ccc2O1,1.0
Cc1noc(C)c1NC(=O)N(C)C[C@H]1OCCCC[C@H](C)Oc2ccc(NS(=O)(=O)c3c(C)noc3C)cc2C(=O)N([C@@H](C)CO)C[C@H]1C,0.5
C[C@@H]1CN([C@@H](C)CO)C(=O)c2cccc(NC(=O)C3CCCCC3)c2O[C@H]1CN(C)Cc1ccc(C(F)(F)F)cc1,-0.7
C[C@@H]1CN([C@H](C)CO)C(=O)Cc2cc(NC(=O)Nc3ccc4c(c3)OCO4)ccc2O[C@@H]1CN(C)C(=O)Nc1ccc(C(F)(F)F)cc1,-0.6
Cc1noc(C)c1S(=O)(=O)N(C)C[C@H]1OCCCC[C@H](C)Oc2ccc(NS(C)(=O)=O)cc2C(=O)N([C@H](C)CO)C[C@@H]1C,1.2
C[C@@H]1CN([C@H](C)CO)C(=O)Cc2cc(NC(=O)Nc3ccc(F)cc3)ccc2O[C@@H]1CN(C)Cc1ccc2c(c1)OCO2,-0.3

# Assay outcomes deposited in PubChem by Broad Institute.

# Only part of the results is shown; rates above refer to the full screens.
